Ecoli rRNA inh: reduced GFP signal of wild-type E. coli, primary screen, bacterial rRNA inhibitor project, GFP/RFP fluorescence, OD600, single point; E. coli WT GFP vs humanized-ribosome RFP mutants, 24 h; active compounds read low; DMSO median 0, no signal -100; GFP signal change (wild-type ribosome), % (no concentration beside the values); 350,000 compounds, 1.6% hits; AID 720706, 2013;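 active = significant combined selectivity score with lowered wild-type GFP, culture density cut under 30%, mutant RFP and density less affected; inactive = any of these conditions unmet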; also: one replicate is shown; some compounds called inactive have numbers as strong as hits
B2AR ag: beta2AR agonists driving receptor internalization, primary screen, cell-based, FAP fluorogen, flow cytometry | response, % (no concentration beside the values) | Am2.2-beta2AR cells; reference of the scale not given here | 340,000 compounds, 0.43% hits | Beta-2 adrenergic receptor (Homo sapiens), P07550;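 active = response above a set limit, near 3 SD of response in nonfluorescent compounds, cut at about 42% in these data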;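 also: stock transfer was 100 nL into about 11 µL; a reference agonist was the positive control; negative values mostly stem from fluorescent compounds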
Target sequence (P07550 whole entry, looked up): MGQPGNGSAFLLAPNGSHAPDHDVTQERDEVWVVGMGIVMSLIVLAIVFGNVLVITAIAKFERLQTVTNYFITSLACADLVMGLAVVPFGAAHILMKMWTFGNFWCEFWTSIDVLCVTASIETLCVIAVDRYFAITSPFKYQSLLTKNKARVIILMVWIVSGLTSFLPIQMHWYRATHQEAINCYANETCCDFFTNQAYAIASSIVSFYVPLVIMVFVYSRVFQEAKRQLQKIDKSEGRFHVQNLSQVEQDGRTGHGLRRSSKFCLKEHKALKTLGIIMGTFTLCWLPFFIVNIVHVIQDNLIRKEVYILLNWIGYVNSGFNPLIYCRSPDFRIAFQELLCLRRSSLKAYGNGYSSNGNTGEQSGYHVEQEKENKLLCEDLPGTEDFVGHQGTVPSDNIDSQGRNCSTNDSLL
Bfl-1 A1 inh: caspase 3/7 activation in MEF A1-2A-BIM cells, primary screen, A1 inhibitor project, cell-based, luminescence, HTS | AID 2462, 2010 | caspase activation, % (no concentration beside the values) | 330,000 compounds, 0.066% hits | Caspase-Glo 3/7 luminescence, 3 h; percent of clofoctol response, vehicle zero;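 active = over half of replicate activation scores above 10%, or exactly half above 10 with the replicate mean above 10; inconclusive = replicate mean below 10 yet half the replicates above 10; inactive = over half of replicates below 10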;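 also: wells of about 30 µL received 50 nL stock; many hits fall short of the cut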
T cruzi repl: inhibitors of intracellular T. cruzi growth, primary screen, luminescence, NIH3T3 host cells. T. cruzi beta-gal in NIH3T3, 90 h. inhibition, % (test concentration not listed). 300,000 compounds, 1.4% hits;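 active = mean inhibition across valid replicates above about 55%, limit read from the data; inconclusive = mean below that limit but half or more replicates reach it; inactive = mean below it, under half of replicates reach it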;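 also: signal also drops with host cell toxicity which is not excluded here; 0% = plate median of DMSO wells and 100% = zero luminescence signal; higher percent means less beta-gal luminescence so fewer parasites; stock transfer was 50 nL into about 50 µL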
LANA-H2B inh: blockers of LANA interaction with H2A/H2B – biochemical, FP readout, HTS, primary screen. cell-free LANA-H2A/H2B peptide, fluorescence polarization. inhibition, % (no concentration beside the values). 320,000 compounds, 0.6% hits. AID 2629, 2010; in the data active = inhibition mostly above about 10%, no sharp cut-off; inactive = mostly below about 6.7%;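 also: stock transfer was 7.5 nL into about 10 µL; 0% = median of vehicle wells and 100% = median of positive control wells; one replicate is shown; the record names a cut of 25% in any replicate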
Calb FLC: C. albicans growth inhibition with fluconazole, primary screen, CaCi-2 strain, Alamar Blue fluorescence; C. albicans CaCi-2 (fluconazole-resistant clinical isolate) + fluconazole, 48 h; growth inhibition, % (no concentration beside the values); 300,000 compounds, 0.57% hits; AID 1979, 2009;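 active = most replicates above 75%; inconclusive = exactly half above 75%; inactive = most below 75%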;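 also: all wells also contain fluconazole at 8 µg/ml as a sub-toxic cotreatment; 0% = median of DMSO wells and 100% = median of geldanamycin control wells; wells of about 8 µL received 7.5 nL stock; the first replicate is given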
ALR inh: inhibitors of human ALR sulfhydryl oxidase, primary screen, biochemical, H2O2 detection, HRP-luminol luminescence, single point; FAD-linked sulfhydryl oxidase ALR (Homo sapiens), P55789; 290,000 compounds, 3.8% hits; purified ALR, DTT oxidation; inhibition, % (no concentration beside the values); AID 485317, 2010;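 active = mean and each replicate at 75% or more; inconclusive = only one of the two met; inactive = neither met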;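 also: stock transfer was 7.5 nL into about 7.5 µL; 0% = neutral wells and 100% = wells with inactivated enzyme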
Target sequence (P55789 whole entry, looked up): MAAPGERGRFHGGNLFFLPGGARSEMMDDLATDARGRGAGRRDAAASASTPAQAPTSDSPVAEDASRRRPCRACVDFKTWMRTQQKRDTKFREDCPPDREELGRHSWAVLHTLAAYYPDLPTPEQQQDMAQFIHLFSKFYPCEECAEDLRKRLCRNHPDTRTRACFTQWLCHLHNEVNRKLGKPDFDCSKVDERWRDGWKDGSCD
Beta cell apopt: inhibitors of cytokine-induced beta cell apoptosis, primary screen, luminescence; INS-1E cytokine-induced death, ATP luminescence, 48 h; percent of positive-control rescue, neutral wells zero; protection from apoptosis, % (concentration not given with the values); 300,000 compounds, 0.8% hits; AID 435005, 2010;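 active = all replicates at 75% or more, or half of them and the mean; inconclusive = half reach 75% but not the mean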;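 also: 0% = cytokine-treated negative control wells and 100% = positive control rescue; higher means more ATP so stronger rescue from cytokine killing; wells of about 40 µL received 100 nL stock; the first replicate is given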
Ecoli rRNA inh OD600: also measured in Ecoli rRNA inh; calls as there; OD600 change, %; measured here: OD600 growth;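 optical density of the mix in the first replicate; 0 = DMSO median and -100 = no signal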
Ecoli rRNA inh RFP: also measured in Ecoli rRNA inh; calls as there; RFP signal change, %; measured here: RFP humanized mutant strains;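 first replicate; 0 = DMSO median and -100 = no signal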
Active calls of the source: *; i = inactive; ? = inconclusive; / = not tested or not shown; & = joins results of further samples. A portion of the library. The share of hits here may be higher or lower than overall.

Screens in order – Ecoli rRNA inh, Ecoli rRNA inh OD600, Ecoli rRNA inh RFP, B2AR ag, Bfl-1 A1 inh, T cruzi repl, LANA-H2B inh, Calb FLC, ALR inh, Beta cell apopt
- Cc1c(Cl)ccc2sc(NC(=O)c3ccco3)nc12
→ -4, -8, 0.3, -7, /, -10, 1.1, 36, -38, 7
- Cc1cc(-c2ccccc2)nn1-c1nc2c(c(=O)[nH]c(=O)n2C)n1C
→ /, /, /, -8, 0.7, 2, -0.9, -4, /, /
- CCOc1ccc(CCNC(=O)c2ccc3nc(N4CCOCC4)sc3c2)cc1OCC
→ 5, -1, 3.2, -4, -0.8, 18, 0.0, -3, -3, 5
- COc1cccc(CC(=O)OCC(=O)NNC(=O)c2ccc([N+](=O)[O-])cc2)c1
→ 7, 3, -1.3, -3, -0.8, -4, 6.0, 11, -4, 1
- CC12CN3CC(C)(CN(C1)C3c1ccc([N+](=O)[O-])o1)C2=O (centres undefined)
→ /, /, /, -3, -0.3, 80*, -0.2, -21, -14, -3
- CCn1c(SCC(=O)Nc2nc3ccc(OC)cc3s2)nnc1-c1ccoc1C
→ /, /, /, 2, -0.5, /, -0.8, /, 0, -9
- O=C(NCCCN1CCOCC1)c1ccc(CS(=O)(=O)c2ccc(Br)cc2)o1
→ 7, 17, -2.8, 4, -0.9, -9, -4.0, 9, -6, -1
- COc1ccc(C2=NN(C(=O)c3cccs3)C(c3ccc(OC)cc3)C2)cc1 (centres undefined)
→ 18, 22, 3.3, 44*, 0.1, 39, 1.7, 9, -15, /
- S=C(NCC1CCCO1)N1CCc2ccccc2C1 (centres undefined)
→ 7, 13, -1.8, 1, 0.1, -9, 3.2, -3, -4, -5
- COc1cccc(CN2CC(C(=O)NC3CCCCCC3)CCC2=O)c1 (centres undefined)
→ -2, -2, 2.3, 0, 0.8, 2, -0.1, -21, 2, 1
- COC(=O)c1[nH]c2ccccc2c1NC(=O)C(C)N1CC(C)OC(C)C1 (centres undefined)
→ -7, 0, 0.0, 1, 1.5, 0, -1.1, -6, -16, -4
- COc1ccc(Oc2ccc(C(F)(F)F)cc2NC(=O)c2ccc(OC)cc2)cc1
→ /, /, /, -9, 0.0, 10, 2.7, 0, -5, 6
- COc1cc(C2C3=C(CCCC3=O)OC3=C2C(=O)CCC3)ccc1OCC(=O)Nc1ccccc1
→ 0, -7, 0.5, 3, 0.8, 3, 1.3, 0, ?, 2
- CC1=CC(=O)O[C@@H]1[C@@]1(C)C[C@H]2OC(=O)C[C@H]3[C@@H](C)C(=O)C(O)=C1[C@@]23CO
→ /, /, /, 2, 0.9, -3, 1.6, -1, 5, -3
- CCN(CC)C(=O)CSc1nc2sc3c(c2c(=O)n1CCCOC)CCC3
→ -12, 2, -2.0, 2, 1.2, 5, 2.5, 4, /, -4
- c1ccc(-n2c(SCC3CCCCO3)nnc2-c2cccs2)cc1 (centres undefined)
→ /, /, /, -7, 0.0, 17, 2.7, 12, -9, -7
- O=C(Cn1c(C(F)(F)F)nc2ccccc21)c1ccc(F)cc1
→ /, /, /, 1, 0.4, -2, -1.7, 0, 92*, 0
- O=C(NCC(c1ccco1)N1CCc2ccccc2C1)c1ccc(Cl)c([N+](=O)[O-])c1 (centres undefined)
→ -5, -7, 7.2, -2, 0.2, -2, 2.1, 0, 0, -7
- CSc1ccc(Cl)c(C(=O)Nc2ccc(C)cn2)c1
→ 2, 5, -0.9, -6, 1.7, -7, -0.8, 15, /, -3
- COc1ccc(OC)c(/C=N/NC(=O)c2cc[n+](Cc3ccccc3)cc2)c1
→ 8, 10, 1.7, 0, 0.9, -18, 1.0, 39, 0, -2
- CCc1ccc(/C=N/NC(=S)NCCc2ccccc2)cc1
→ /, /, /, 4, 0.9, 2, -1.6, -11, -23, -12
- CCN(CC)C(=O)C1=C(C)Nc2nc3ccccc3n2C1c1cccc(OC)c1 (centres undefined)
→ /, /, /, 3, 0.8, 10, -3.9, -11, 45, -2
- COC(c1ccccc1)c1nnc(CCC(=O)NC2C3CC4CC(C3)CC2C4)o1 (centres undefined)
→ -8, -9, -0.4, -2, -1.4, 2, 1.5, 3, -3, -1
- CCOC(=O)c1cnc2c(C)cccc2c1Nc1ccc(N2CCOCC2)cc1
→ /, /, /, /, -0.4, 27, -0.8, 6, 48, 7
- CCCCCCCOC(=O)C1=C(C)Nc2ncnn2C1c1cccs1 (centres undefined)
→ /, /, /, 6, 0.5, -15, 6.7, 14, 0, 24
- COc1ccc(C(=O)OCC(=O)NC(C)CCc2ccccc2)c(OC)c1 (centres undefined)
→ 3, -3, 0.7, 2, 0.4, -1, -3.0, 9, -7, -3
- Cc1ccc(S(=O)(=O)NC2(C(F)(F)F)NC(=O)N(Cc3ccccc3)C2=O)cc1 (centres undefined)
→ -6, -3, -0.2, 6, -0.4, -8, -1.4, 4, 16, -2
- O=C(O)C1CC=CCC1C(=O)NNc1c(Cl)cc(Cl)cc1Cl (centres undefined)
→ 0, -3, -2.9, 2, -0.3, -17, 3.2, -9, 0, 0
- COC(=O)c1sc(S(=O)(=O)N2CCCCC2)c(C(=O)OC)c1C
→ -13, -19, -2.5, 17, 0.2, 14, 0.8, ?, -8, -6
- S=C(NCc1ccccc1)NCC1COc2ccccc2O1 (centres undefined)
→ /, /, /, 0, 0.3, 9, -0.5, -41, 1, 5
- CCN(CC(=O)Nc1cc(Cl)ccc1C)C(=O)CCc1nc2ccccc2c(=O)[nH]1
→ 13, 8, 2.2, -3, -1.0, /, -0.2, /, 0, -4
- COc1ccc(C(C(=O)NCc2ccccc2)N(C(=O)c2snc(C(N)=O)c2N)c2ccccc2OC)cc1OC (centres undefined)
→ 7, -9, 7.8, 3, -0.3, 3, -0.1, 30, /, 3
- COc1ccc(NC(=O)C2CCCN(c3c4c(nc5ncnn35)CCC4)C2)cc1 (centres undefined)
→ /, /, /, -24, -0.6, -17, 5.3, 7, -7, 0
- O=C(Nc1ccccc1N1CCOCC1)c1ccc2ccccc2c1
→ -20, -26, -3.8, 6, -0.1, 8, -0.6, -3, -4, 1
- COc1cccc(-c2nn(-c3ccccc3)cc2CO)c1
→ /, /, /, -12, -0.2, -5, 0.2, -4, 1, -2
- CCc1cc(=O)oc2cc(C)cc(OC(C)C(=O)NCc3ccccn3)c12 (centres undefined)
→ 3, 2, -2.1, -1, -1.2, -2, 1.9, 0, -23, -4
- CCNC(=O)c1cc2c(=O)n3cccc(C)c3nc2n(Cc2ccc(C)cc2)c1=N
→ /, /, /, 51*, -0.3, 13, 11, -9, -6, 8
- Cc1ccccc1-c1nn(-c2ccccc2)cc1C(=O)NCC(c1ccco1)N1CCCC1 (centres undefined)
→ -3, -9, 5.8, -4, 0.3, /, -2.7, /, -2, 3
- CC(C)[C@H](NC(=O)[C@H](Cc1ccccc1)n1c(=O)[nH]c2ccccc2c1=O)C(=O)N1CCC[C@H]1C(=O)O
→ /, /, /, 2, -0.4, -5, -1.6, -8, -15, -3
- Cc1ccc(C(=O)Nc2ccc(N3CCOCC3)cc2N2CCOCC2)cc1
→ 21, 18, 2.8, 9, -0.8, 0, -0.4, 4, 7, 0
- CC(C)c1ccc(NC(=S)NC2CCCCCC2)cc1
→ -25, -34, -1.7, -10, 0.1, 40, -3.0, -27, 10, 4
- COc1ccc(NC(=O)Nc2ccc3c(c2)C(=O)N([C@H](C)CO)C[C@H](C)[C@@H](CN(C)C(=O)NC(C)C)O3)cc1
→ 2&11, 7&2, -1.1&0.2, -4, 0.0, /, -1.9, /, -6, -15
- COc1ccc(C(=O)O)c(O)c1
→ -1, -1, -3.9, -4, 0.0, -5, -12, 0, -23, -8
- Nc1ncnc2c1ncn2[C@@H]1O[C@H](CNS(=O)(=O)CCCCl)[C@@H](O)[C@H]1O
→ 11, 9, 0.0, -1, -0.1, /, i, /, 0, -4
- CCC1(C(=O)c2ccc(Cl)cc2)C2c3ccccc3OC(=O)C21C(=O)Nc1ccccc1 (centres undefined)
→ /, /, /, 12, 3.9, 2, -1.0, ?, 3, -1
- Cc1cc2c(N3CCCCC3C)ncnc2s1 (centres undefined)
→ /, /, /, 2, 1.1, -28, 2.1, -13, 97*, 3
- O=C(NCc1ccco1)c1ccc([N+](=O)[O-])cc1Cl
→ 6, 11, -4.5, -2, 1.2, -4, 0.9, -8, -19, -4
- COc1ccccc1C(c1nnnn1C(C)C)N1CCN(C(=O)c2ccco2)CC1 (centres undefined)
→ 0, -1, -2.7, 3, 1.1, 4, 0.2, -6, -2, 0
- O=C(c1ccc(Br)s1)N1CCCC1
→ /, /, /, -7, -0.3, -26, -0.7, 0, -20, -3
- Cc1cc(=O)n2nc(N3CCCC(C(=O)NCc4ccccc4Br)C3)sc2n1 (centres undefined)
→ -2, 7, -0.9, -7, -1.1, 0, 2.3, -19, 0, -1

The listing continues:
Screens in order – Ecoli rRNA inh, Ecoli rRNA inh OD600, Ecoli rRNA inh RFP, B2AR ag, Bfl-1 A1 inh, T cruzi repl, LANA-H2B inh, Calb FLC, ALR inh, Beta cell apopt
- O=C(C[n+]1ccccc1)N/N=C/c1ccc(O)cc1
→ 14, 13, -4.6, 8, 0.5, 17, 1.0, -8, 99*, -4
- CCCc1cc(=O)[nH]c(SCC(=O)Nc2ccc(OCc3ccccc3)cc2)n1
→ 2, 7, -2.0, 4, -0.4, /, 1.6, /, -5, -1
- CCC1CCc2c(sc(NC(=O)c3cccnc3)c2C(N)=O)C1 (centres undefined)
→ /, /, /, -9, 0.5, 20, 3.5, 4, -6, -2
- Cc1c(Br)c(C(F)(F)F)nn1CC(=O)NCc1ccccc1
→ /, /, /, -3, 0.3, -13, 1.2, 1, 6, /
- CCOc1ccccc1NC(=O)C(CC(C)C)NC(=O)C1CCCCC1 (centres undefined)
→ /, /, /, 2, 0.3, 0, -5.9, -5, -4, -4
- CCC1C(=O)N=C(SCC(=O)NC2CCCCC2)NC1=O (centres undefined)
→ 9, 4, -1.4, 9, 0.8, -20, -3.1, ?, 57, -5
- CC(=O)NCCC(=O)Nc1cc(S(=O)(=O)N2CCCCC2)ccc1Oc1ccccc1
→ 6, -3, 1.2, 2, 0.4, -15, -12, -1, -9, 3
- COc1ccc(/C=C2/SC(=O)N(CC(O)Cn3c4ccccc4c4ccccc43)C2=O)cc1 (centres undefined)
→ /, /, /, 8, 0.0, 13, 1.8, -3, -3, 2
- CC1CCCCN1S(=O)(=O)c1ccc(NC(=O)c2cccc(-n3cnnn3)c2)cc1 (centres undefined)
→ /, /, /, -1, 0.7, -6, 1.0, 91*, -8, -2
- O=[N+]([O-])c1cccnc1N1CCC(c2cc(-c3cccc(C(F)(F)F)c3)n[nH]2)CC1
→ /, /, /, 15, -1.1, 52, 3.8, 1, -3, 30

High-throughput results as filed in PubChem.
